Screens: PubChem, ICCB-Longwood Screening Facility, Harvard Medical School
Sa helicase inh = S. aureus DNA helicase inhibition. inhibition, %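 (tested at about 80 µM)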. AID 485395. purified S. aureus helicase, fluorescence unwinding assay; about half of the hits fall short of the stated cut. 120,000 compounds, 0.05% hits;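 active = both duplicates at 50% or more, or one of them with a favoured structure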;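 note: 0% = mean of negative control wells and 100% = mean of positive control wells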
MgrA DNA FP = alters Staphylococcus aureus MgrA binding to DNA; fluorescence polarization; inhibition, %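 (about 10 µg/mL by stock and volumes)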; 84,000 compounds, 0.13% hits;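 active = above 50% in either of two replicates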;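 note: 0% = protein plus DNA without compound and 100% = DNA alone without protein; higher means less MgrA bound to DNA so lower polarization; one replicate is shown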
Active calls of the source: *; x = not tested or not shown.

entry	Sa helicase inh	MgrA DNA FP	smiles
1	7	-1.2	CCCN(C(=O)c1cc2cc3ccc(OC)cc3nc2s1)c1ccc(CC)cc1
2	8	x	COc1ccc(NC(=O)CCS(=O)(=O)c2ccc3c(c2)CCN3C(C)=O)cc1
3	-26	1.4	O=C(CCc1nc2ccccc2s1)OCc1ccccc1
4	x	-1.2	CC(=O)OC[C@H]1O[C@@H](O[C@H]2[C@H](OC(C)=O)[C@@H](OC(C)=O)[C@H](OC(C)=O)O[C@@H]2COC(C)=O)[C@H](OC(C)=O)[C@@H](OC(C)=O)[C@@H]1OC(C)=O
5	x	-0.2	Clc1ccc(OCCCN2CCN(c3cccc4[nH]ccc34)CC2)cc1
6	-29	x	COc1ccc(N2CCN(S(=O)(=O)c3ccc(-n4[nH]c(=O)c5ccccc5c4=O)cc3)CC2)cc1
7	14	x	Cc1cccc(C(=O)NCCC(=O)N2CCc3ccccc3C2)c1
8	-9	x	N#CC(C#N)=C1C=C(c2ccccc2)Sc2ccccc21
9	x	4.7	COc1ccc2c(c1)NC(c1ccccc1)c1cccn1-2 (centres undefined)
10	21	x	Brc1ccc(-c2nnc3sc(CN4CCc5ccccc54)cn23)cc1
11	-2	-3.6	CC1=C(C(=O)OC2CCCC2)C(c2coc3ccc(C)cc3c2=O)C2=C(CC(c3ccco3)CC2=O)N1 (centres undefined)
12	-3	x	Cc1nnc(SC(C)C(=O)N(C)C2CCCCC2)n1N (centres undefined)
13	1	-2.5	COc1ccc(Br)cc1C1SCCN1S(=O)(=O)c1ccc(Cl)c(Cl)c1 (centres undefined)
14	-14	x	Cc1ccc2oc(=O)ccc2c1
15	12	x	Cn1ccsc1=NC(=O)c1ccc(OC(F)(F)F)cc1
16	15	5.8	O=C(Nc1cccc(-c2nn[nH]n2)c1)c1cccc(C(F)(F)F)c1
17	0	x	CCOC(=O)N1CCC(NS(=O)(=O)c2ccc(C#N)cc2)CC1
18	15	x	Cc1c(C(=O)N(C)C2CCCCC2)sc2nc(-c3ccccc3)cn12
19	17	2.0	CCCC(=O)Nc1ccc(N2CCCCC2C)cc1 (centres undefined)
20	10	-2.1	COc1ccc(C(=O)N(c2ccc(OC)cc2)S(=O)(=O)c2ccc(C)cc2)cc1
21	-24	x	c1ccc2oc(SCc3cn4ccsc4n3)nc2c1
22	1	1.1	COc1ccc2c(c1)C(C)=CC(C)(C)N2C(=O)Cn1cnc2c(cnn2-c2ccccc2)c1=O
23	-1	-2.2	CC(=O)NC1C(=O)Nc2ccc(F)cc21 (centres undefined)
24	-18	-0.3	Cc1ccc(NC(=O)CC(NCC2CCCO2)C(=O)O)cc1 (centres undefined)
25	x	0.0	CSc1nc(N)nc(-c2cnccn2)n1
26	-12	x	Cc1ccc(S(=O)(=O)NC(CC(=O)NC2CCCC2)c2ccco2)cc1 (centres undefined)
27	11	0.7	Cc1ccccc1NC(=O)c1cnn2c(C(F)(F)F)cc(-c3ccco3)nc12
28	-10	x	C=CCn1c(C)nnc1SCCN1C(=O)c2ccccc2S1(=O)=O
29	8	1.2	O=C(CS(=O)(=O)c1cn(Cc2cccc(F)c2)c2ccccc12)NC1CCCCC1
30	-11	-0.1	Cc1cc(C)n(C(=O)Cc2cccs2)n1
31	10	-1.6	O=C(O)/C(=C/c1ccc(F)cc1)c1cccs1
32	3	x	CC1CCC(N(C)C(=O)COC(=O)c2ccc(-n3cncn3)cc2)CC1 (centres undefined)
33	x	-0.6	O=C(Nc1ccc(Cl)cc1)OCc1cn(-c2ccccc2)nn1
34	12	0.8	CCCNC(=O)Cc1c(C)nc2cc(-c3ccccc3)nn2c1C
35	-4	3.5	O=C(Oc1c(Br)cc(Br)c2cccnc12)N1CCOCC1
36	10	x	N#C/C(=C(\OCc1nnc(-c2ccccc2)o1)C(F)(F)F)c1nnc2n1CCCCC2
37	-9	x	O=C(O)C(O)c1ccc(F)cc1 (centres undefined)
38	3	x	Cc1nn(-c2cccc(Cl)c2)nc1C(=O)NC1CCCCCC1
39	x	0.5	CC(C)CCOC(=O)C1(C(=O)OCCC(C)C)CC2(COC(c3ccccc3)OC2)C1
40	-3	x	CCC(=O)Nc1c2c(nn1C(C)(C)C)CSC2
41	-15	1.9	CC(=O)NC1(c2ccccc2)CCN(C(C)=O)CC1
42	13	x	COc1ccc(Nc2oc(COc3ccccc3F)nc2C#N)cc1
43	9	x	CCn1nnc2cc(C(=O)Nc3ccc(N4CCCC4)cc3)ccc21
44	-79	x	COc1ccc2c(CN3C(=O)NC4(CCc5ccccc54)C3=O)cc(=O)oc2c1 (centres undefined)
45	-10	1.4	CCCCn1c(C(F)(F)F)nc2c(=O)oc3ccccc3c21
46	-12	x	O=C(CN1CCN(S(=O)(=O)c2ccc3c(c2)OCCO3)CC1)N(Cc1ccccc1)Cc1ccccc1
47	-18	24	N#C/C(=C\c1ccoc1)S(=O)(=O)c1ccccc1
48	-20	x	Cc1sc(NC(=O)c2ccco2)c(C(c2ccccc2)N2CCN(C)CC2)c1C (centres undefined)
49	5	x	CC1CN(CC(=O)Nc2ncc(Cc3ccccc3F)s2)CC(C)O1 (centres undefined)
50	20	-1.4	O=c1cccc2n1CC1CC(C2)N(c2nc(N3CCCCC3)nc(N3CCCCC3)n2)C1 (centres undefined)
51	x	-0.5	O=C1Nc2ccccc2C1Cc1ccccn1 (centres undefined)
52	x	-1.3	CCOC(=O)Cn1c2ccccc2c2ccccc21
53	x	3.5	CCOC(=O)c1c(C)oc2c(F)c(F)c(F)c(F)c12
54	-17	x	COc1cc(Cl)c(S(=O)(=O)Nc2ccccn2)cc1Cl
55	5	-1.6	COc1ccc(N2C(=S)SC3CS(=O)(=O)CC32C)cc1 (centres undefined)
56	x	-0.2	O=C(CC1SC(=Nc2ccccc2)NC1=O)Nc1ccccc1 (centres undefined)
57	8	0.9	CCOc1ccc(Br)cc1C1CC(=O)Nc2c1ccc(C)c2C (centres undefined)
58	23	0.6	Cc1ccccc1NC(=O)Nc1ccc(CN2CCCCC2)cc1
59	-15	x	Cc1nn(-c2ccc(F)cc2)c2sc(C(=O)OCC(=O)N(C)C3CCS(=O)(=O)C3)cc12 (centres undefined)
60	18	x	CCc1ccc(-c2nc(-c3ccc(C)cc3)no2)cc1

(list continues)
entry	Sa helicase inh	MgrA DNA FP	smiles
61	8	x	CC(C)(CSc1n[nH]c(N)n1)NS(=O)(=O)c1ccc(Cl)cc1
62	x	0.4	COc1ccc(-c2cc(-c3ccc(C)cc3)nc(N3CCCCC3)n2)cc1
63	4	0.2	O=C(NC1CC1)C1C2C=CC3(O2)C1C(=O)N(C1CC1)C3C(=O)NC1CCCCC1 (centres undefined)
64	-9	x	CC(=O)Nc1cccc(OCC(=O)N2CC(C)CC(C)C2)c1 (centres undefined)
65	9	x	CCOC(=O)c1nn(-c2ccc(C)cc2)c(=O)c2c(N)scc12
66	-17	x	COc1ccc(CC(=O)Nc2noc3ccccc23)cc1
67	10	x	CCOC(=O)c1ccc(NC(=O)/C=C/c2ccc(C)o2)cc1
68	4	x	O=C(CO/N=C/c1ccccc1OC(F)F)N1CCN(S(=O)(=O)c2ccccc2)CC1
69	19	-1.6	Cc1cccc2cc(CN(Cc3ccco3)Cc3nnnn3CCc3ccccc3)c(=O)[nH]c12
70	9	x	COc1ccc2oc(=O)sc2c1
71	-24	x	CC(C)=NNC(=O)CN1C(=O)NC2NC(=O)NC21 (centres undefined)
72	12	2.0	O=c1[nH]c(CSCCO)nc2c1C1(CCCCC1)Cc1ccccc1-2
73	-7	x	Cn1c(Cc2cccs2)nnc1SCCN1C(=O)c2ccccc2C1=O
74	x	-2.0	NC(=O)c1sc(-c2ccc(Cl)cc2)cc1NC(=O)/C=C/C(=O)O
75	x	-0.6	CC(C)(C)OC(=O)NC1CCN(Cc2c(F)cccc2Cl)CC1
76	x	-0.4	FC(F)(F)c1ccc(-c2cccs2)nc1
77	17	x	COc1cccc(C(=O)Nc2cccc(-c3ccc(N4CCN(C)CC4)nn3)c2)c1
78	x	-1.8	COC(=O)c1c(C)oc(C)c1S(=O)(=O)N1CCCC1
79	x	-3.7	O=S(=O)(CS(=O)(=O)Sc1ccc(Cl)cc1)Sc1ccc(Cl)cc1
80	13	-3.0	O=C(COc1cccc(NC(=O)c2ccco2)c1)c1ccccc1
81	x	-1.9	CC(=O)Nc1cccc(C(=O)CCC(=O)O)c1
82	-4	x	COc1ccccc1NC(=O)c1c(C)[nH]c(=S)c(C#N)c1-c1ccc(C)o1
83	x	-0.6	NC(=O)c1cc2cc(Br)ccc2oc1=Nc1cccc(C(F)(F)F)c1
84	0	-3.3	COc1ccc(NC(=O)CCN2CCCCC2)cc1
85	-3	-1.1	COc1ccc(NC(=O)c2ccc3ccccc3c2OC)cc1
86	11	x	O=c1c2c(-c3cccs3)csc2ncn1/N=C/c1ccccc1F
87	-16	x	O=C(Nc1ccc(-n2cnnn2)cc1)C1CCN(C(=O)/C=C/c2ccccc2)CC1
88	20	-1.9	N#CCN(CC#N)C(=O)c1sc2ccccc2c1Cl
89	11	x	CC(=O)N1CCN(C2c3cccc4cccc(c34)C2NS(=O)(=O)c2ccccc2)CC1 (centres undefined)
90	15	4.0	COC(=O)c1ccc(CSc2nc3ccncc3[nH]2)cc1

Grouped by structure: the entries above containing a COOH group (5)
entry	Sa helicase inh	MgrA DNA FP	smiles
24	-18	-0.3	Cc1ccc(NC(=O)CC(NCC2CCCO2)C(=O)O)cc1 (centres undefined)
31	10	-1.6	O=C(O)/C(=C/c1ccc(F)cc1)c1cccs1
37	-9	x	O=C(O)C(O)c1ccc(F)cc1 (centres undefined)
74	x	-2.0	NC(=O)c1sc(-c2ccc(Cl)cc2)cc1NC(=O)/C=C/C(=O)O
81	x	-1.9	CC(=O)Nc1cccc(C(=O)CCC(=O)O)c1

Rewritten as labelled records: entries from further up
43) CCn1nnc2cc(C(=O)Nc3ccc(N4CCCC4)cc3)ccc21
  Sa helicase inh = 9 | MgrA DNA FP = x

19) CCCC(=O)Nc1ccc(N2CCCCC2C)cc1 (centres undefined)
  Sa helicase inh = 17 | MgrA DNA FP = 2.0

3) O=C(CCc1nc2ccccc2s1)OCc1ccccc1
  Sa helicase inh = -26 | MgrA DNA FP = 1.4

45) CCCCn1c(C(F)(F)F)nc2c(=O)oc3ccccc3c21
  Sa helicase inh = -10 | MgrA DNA FP = 1.4

(list continues)
entry	Sa helicase inh	MgrA DNA FP	smiles
91	0	0.8	COc1ccc(CNC(=O)c2cccs2)cc1OC
92	22	-2.1	Cc1ccc(S(=O)(=O)N2CCC(C)CC2)cc1C(N)=O
93	8	x	Cc1c(-c2nc3ncc(Br)cc3[nH]2)cc(C#N)n1C
94	0	2.0	CC(C)c1nc2ccccc2c(=O)[nH]1
95	-20	x	O=C1OCCC1Sc1nc2sc3c(c2c(=O)[nH]1)CCCC3 (centres undefined)
96	13	x	CN1CCN(S(=O)c2ccc3ccccc3c2)CC1 (centres undefined)
97	0	1.5	CS(=O)(=O)N1CCCC(C(=O)Nc2ccccc2)C1 (centres undefined)
98	12	x	NNC(=O)c1cc(NS(=O)(=O)c2cccs2)cc(NS(=O)(=O)c2cccs2)c1
99	19	0.7	CCN(C#N)c1nc(OC)nc(N2CCOCC2)n1
100	17	x	COc1ccc(C(=O)N2CCN(c3ncnc4c3nnn4-c3ccc(F)cc3)CC2)cc1OC
101	3	-0.5	CSc1ccc(S(=O)(=O)N2CCC(C(N)=O)CC2)cc1
102	15	-0.1	O=S(=O)(c1ccc(Cl)c(Cl)c1)N1CCCCC1
103	x	0.2	C/C(N)=N/C(=S)Nc1ccc(Cl)cc1
104	16	x	CCN1CCc2c(sc(-n3cccc3)c2C(C)NC(=O)Nc2ccc(Br)c(C)c2)C1 (centres undefined)
105	-24	x	COc1ccc(NC(=O)C2CCN(c3nc(-c4ccc(OC)cc4)no3)CC2)cc1
106	x	10	Cc1cc(C)nc(SC(=O)OC(C)(C)C)n1
107	-2	x	CN(C)S(=O)(=O)c1ccc(SCCCn2c(=O)[nH]c3ccccc32)nc1
108	2	-2.0	CSc1nnc(CNC(=O)N(c2ccccc2)c2ccccc2)n1C(C)C
109	-4	2.0	O=S(=O)(Cc1ccccc1)NCc1ccco1
110	13	3.8	Cc1ccccc1-c1nnc(N(C(=O)C2CC2)C2CCCC2)s1
111	7	x	CCCc1nc2c(sc3nc4c(cc32)COC(C)(C)C4)c(=O)o1
112	-16	x	O=C1CCCN2N=C(SCC(=O)Nc3ccccc3)SC2=N1
113	10	0.8	CCOC(=O)c1cc2sccc2n1CC(=O)OCC(=O)NCc1ccco1
114	23	0.3	OCC1CCCN(C(=S)NCCc2ccccc2)C1 (centres undefined)
115	x	1.9	COc1cc2c(cc1OC)C(c1ccc(Cl)cc1)NC(=O)C2 (centres undefined)
116	x	-0.1	CC(=O)N[C@@H](Cc1ccccc1)C(=O)NN
117	x	9.3	C=CCOC(=O)C1=C(C)NC(S)=C(C#N)C1c1cccnc1 (centres undefined)

Quoted at random: 6 entries already listed
entry	Sa helicase inh	MgrA DNA FP	smiles
112	-16	x	O=C1CCCN2N=C(SCC(=O)Nc3ccccc3)SC2=N1
107	-2	x	CN(C)S(=O)(=O)c1ccc(SCCCn2c(=O)[nH]c3ccccc32)nc1
109	-4	2.0	O=S(=O)(Cc1ccccc1)NCc1ccco1
108	2	-2.0	CSc1nnc(CNC(=O)N(c2ccccc2)c2ccccc2)n1C(C)C
111	7	x	CCCc1nc2c(sc3nc4c(cc32)COC(C)(C)C4)c(=O)o1
115	x	1.9	COc1cc2c(cc1OC)C(c1ccc(Cl)cc1)NC(=O)C2 (centres undefined)

Look-ups from the list.
In MgrA DNA FP, entry 114 has 0.3
In Sa helicase inh, entry 48 has -20
In MgrA DNA FP, entry 75 has -0.6
In Sa helicase inh, entry 61 has 8
In Sa helicase inh, entry 22 has 1
In MgrA DNA FP, entry 117 has 9.3
In Sa helicase inh, entry 73 has -7

A portion of the library; rates above refer to the full screens.
